RanGTP-Imp inh – inhibitors of RanGTP-importin-beta interaction, primary screen, biochemical, FRET, CFP-Ran, YFP-importin-beta, homogeneous; cell-free CFP-Ran/YFP-importin-beta FRET ratio; inhibition, % (no concentration beside the values); actives 1.1% (n = 300,000); AID 2216, 2009;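 active = most replicates above 15%; inconclusive = exactly half above 15%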;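 also: 0% = DMSO wells and 100% = Ran loaded with GDP instead of GTP; wells of about 40 µL received 100 nL stock; the first replicate is given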
Calb FLC – C. albicans growth inhibition with fluconazole, primary screen, CaCi-2 strain, Alamar Blue fluorescence; C. albicans CaCi-2 (fluconazole-resistant clinical isolate) + fluconazole, 48 h; growth inhibition, % (no concentration beside the values); actives 0.57% (n = 300,000); AID 1979, 2009;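 active = most replicates above 75%; inconclusive = exactly half above 75%; inactive = most below 75%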;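 also: all wells also contain fluconazole at 8 µg/ml as a sub-toxic cotreatment; 0% = median of DMSO wells and 100% = median of geldanamycin control wells; wells of about 8 µL received 7.5 nL stock; the first replicate is given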
LANA-H2A inh – blockers of LANA interaction with H2A/H2B – biochemical, FP readout, HTS, primary screen | actives 0.6% (n = 320,000) | cell-free LANA-H2A/H2B peptide, fluorescence polarization | inhibition, % (no concentration beside the values) | Protein LANA1 (Human herpesvirus 8 type P (isolate GK18)), Q9QR71; in the data active = inhibition mostly above about 10%, no sharp cut-off; inactive = mostly below about 6.7%;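 also: stock transfer was 7.5 nL into about 10 µL; 0% = median of vehicle wells and 100% = median of positive control wells; one replicate is shown; the record names a cut of 25% in any replicate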
Target sequence (Q9QR71 whole entry, looked up): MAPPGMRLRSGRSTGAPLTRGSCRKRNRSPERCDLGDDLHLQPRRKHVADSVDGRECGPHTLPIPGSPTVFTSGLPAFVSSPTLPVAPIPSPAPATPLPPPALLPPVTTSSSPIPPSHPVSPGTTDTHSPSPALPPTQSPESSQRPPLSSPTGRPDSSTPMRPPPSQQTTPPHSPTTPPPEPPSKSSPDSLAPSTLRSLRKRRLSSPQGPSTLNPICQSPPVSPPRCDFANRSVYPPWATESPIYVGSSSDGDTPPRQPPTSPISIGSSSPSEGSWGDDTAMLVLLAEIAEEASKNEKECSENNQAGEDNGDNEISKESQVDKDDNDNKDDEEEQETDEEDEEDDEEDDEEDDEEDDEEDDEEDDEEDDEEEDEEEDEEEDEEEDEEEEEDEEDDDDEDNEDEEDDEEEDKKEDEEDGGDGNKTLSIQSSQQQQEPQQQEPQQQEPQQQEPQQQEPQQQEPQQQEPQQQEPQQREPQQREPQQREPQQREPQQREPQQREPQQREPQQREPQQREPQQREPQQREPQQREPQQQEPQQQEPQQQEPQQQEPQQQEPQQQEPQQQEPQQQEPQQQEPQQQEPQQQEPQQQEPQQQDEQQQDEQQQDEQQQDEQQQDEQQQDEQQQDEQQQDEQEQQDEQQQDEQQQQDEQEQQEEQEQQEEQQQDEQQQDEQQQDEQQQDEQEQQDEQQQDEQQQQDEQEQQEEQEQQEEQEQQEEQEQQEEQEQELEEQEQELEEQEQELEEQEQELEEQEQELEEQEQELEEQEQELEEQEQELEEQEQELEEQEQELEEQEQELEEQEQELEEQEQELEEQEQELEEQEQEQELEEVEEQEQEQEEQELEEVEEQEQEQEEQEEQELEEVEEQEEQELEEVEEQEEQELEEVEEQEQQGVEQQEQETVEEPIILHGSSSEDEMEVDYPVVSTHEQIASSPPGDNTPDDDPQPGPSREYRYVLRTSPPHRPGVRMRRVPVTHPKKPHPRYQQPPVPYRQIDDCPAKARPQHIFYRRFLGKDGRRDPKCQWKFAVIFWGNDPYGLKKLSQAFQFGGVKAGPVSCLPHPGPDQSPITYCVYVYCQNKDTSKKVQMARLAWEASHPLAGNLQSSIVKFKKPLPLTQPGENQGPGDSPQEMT
Bfl-1 A1 inh – caspase 3/7 activation in MEF A1-2A-BIM cells, primary screen, A1 inhibitor project, cell-based, luminescence, HTS | Caspase-Glo 3/7 luminescence, 3 h; percent of clofoctol response, vehicle zero | caspase activation, % (concentration not given with the values) | actives 0.066% (n = 330,000) | AID 2462, 2010;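 active = over half of replicate activation scores above 10%, or exactly half above 10 with the replicate mean above 10; inconclusive = replicate mean below 10 yet half the replicates above 10; inactive = over half of replicates below 10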;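 also: wells of about 30 µL received 50 nL stock; many hits fall short of the cut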
AF4-AF9 inh – inhibitors of AF4 peptide binding to AF9, primary screen, biochemical, AlphaScreen, biotin-AF4 peptide, FLAG-AF9, single point; Protein AF-9 (Homo sapiens), P42568; inhibition, % at 10 µM; actives 0.47% (n = 350,000); AID 651704, 2012;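 active = every replicate reaching a set inhibition limit, whatever the replicate mean, cut at about 25% in these data; inconclusive = mean inhibition reaches that limit but some replicates miss it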;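 also: 0% = plate neutral control median and 100% = total signal loss; the record names both 10 and 1 µM as test concentration; the first replicate is given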
T cruzi inh – inhibitors of intracellular T. cruzi growth, primary screen, luminescence, NIH3T3 host cells; actives 1.4% (n = 300,000); T. cruzi beta-gal in NIH3T3, 90 h; inhibition, % (no concentration beside the values);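 active = mean inhibition across valid replicates above about 55%, limit read from the data; inconclusive = mean below that limit but half or more replicates reach it; inactive = mean below it, under half of replicates reach it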;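 also: signal also drops with host cell toxicity which is not excluded here; 0% = plate median of DMSO wells and 100% = zero luminescence signal; higher percent means less beta-gal luminescence so fewer parasites; stock transfer was 50 nL into about 50 µL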
Beta apoptosis – inhibitors of cytokine-induced beta cell apoptosis, primary screen, luminescence | INS-1E cytokine-induced death, ATP luminescence, 48 h; percent of positive-control rescue, neutral wells zero | protection from apoptosis, % (test concentration not listed) | actives 0.8% (n = 300,000) | AID 435005, 2010;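 active = all replicates at 75% or more, or half of them and the mean; inconclusive = half reach 75% but not the mean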;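 also: 0% = cytokine-treated negative control wells and 100% = positive control rescue; higher means more ATP so stronger rescue from cytokine killing; wells of about 40 µL received 100 nL stock; the first replicate is given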
Vif TR-FRET – inhibitors of Vif binding to APOBEC3G peptide, primary screen, biochemical, TR-FRET, GST-Vif 1-94, biotin-A3G peptide, dose response retest (AID 1117319). Virion infectivity factor (Human immunodeficiency virus type 1 group M subtype B (isolate …. TR-FRET GST-Vif / biotin-A3G peptide binding; higher % means a stronger effect; test concentration not given here; strong numbers were not always called active. one-dose inhibition, %; IC50 in µM for titrated hits. actives 0.57% (n = 260,000);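 active = above the screen mean plus three standard deviations and confirmed in dose response; inconclusive = results disagree or hit not tested in dose response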;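 also: Vif residues 1-94 fused to GST binding biotinylated APOBEC3G peptide 110-148; 0% = full assay without inhibitor and 100% = GST in place of GST-Vif; retest series ran down from 100 µM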
* marks the source's active call; other numbers are inactive results; ? = inconclusive; nt = not tested or not shown.

SMILES	RanGTP-Imp inh	Calb FLC	LANA-H2A inh	Bfl-1 A1 inh	AF4-AF9 inh	T cruzi inh	Beta apoptosis	Vif TR-FRET
O=C(NCCN1CCOCC1)c1ccccc1Oc1ccccc1	-1.2	-9	-2.3	-0.6	nt	-17	2	21%
CN(C)S(=O)(=O)N1CCN(c2ccc([N+](=O)[O-])c(N3CCOCC3)c2)CC1	2.3	-8	0.2	0.8	1.8	-2	2	7%
CCCc1cc(C(=O)Nc2cnn(Cc3ccc(F)cc3)c2)no1	-1.0	-4	2.5	-0.8	-1.3	11	-2	-10%
O=C(NN=C1C2CC3CC(C2)CC1C3)c1cc(Cl)ccc1O	0.6	?	2.4	1.4	nt	-19	4	25%
CC(C)(C)n1ncc2c(=O)n(CC(=O)NCc3ccco3)cnc21	2.8	-5	-0.1	0.4	nt	-10	0	19%
O=C(CNC(=O)c1cccc(Cl)c1)NCCCSc1ccccc1	?	nt	-4.2	-0.3	-0.8	2	-18	-1%
CCn1c(CCCNC(=O)c2ccc(F)cc2)nc2ccccc21	1.2	-2	0.0	0.1	-6.8	4	-5	1%
Cc1cc(C)c2c(N)c(C(=O)c3ccc(Cl)cc3)sc2n1	3.0	0	4.1	0.2	5.7	45	12	-8%
CCn1c(SCc2ccc(F)cc2)nc2ccccc2c1=O	?	-2	1.9	1.1	-3.5	9	5	6%
CCc1nc2ccccc2c(C(=O)OCc2nc3ccccc3c(=O)[nH]2)c1C	nt	nt	-4.4	-0.2	-0.8	nt	-7	-7%
O=C(c1cccc(F)c1)N1CCC(O)(c2cccnc2)CC1	1.1	-3	1.8	0.3	nt	-3	-2	-4%
COc1ccnc(Oc2ccc(F)cc2)c1C#N	3.1	4	-17	0.0	-1.2	-5	-2	nt
Cc1ccc(NS(=O)(=O)c2cccc(C(=O)N3CCCCC3)c2)cc1	nt	nt	-1.7	0.0	-2.2	nt	1	-1%
COc1ccc(C(=O)OCc2cc(=O)n3ccsc3n2)cc1F	nt	nt	-1.0	0.6	-0.7	nt	-1	-6%
COc1cc(NC(=O)C2CCCO2)c(OC)cc1NC(=O)c1ccccc1 (stereo not drawn)	2.8	10	4.1	-0.9	nt	-5	-1	-1%
N#CC1=C(N)OC2=C(CC/C2=C\c2ccc(F)cc2)C1c1ccc(F)cc1 (stereo not drawn)	nt	nt	1.2	1.4	nt	-10	-7	nt
COC(=O)c1ccc(CSc2nnc(Nc3cccc(OC)c3)s2)o1	-6.0	-21	-1.2	1.9	nt	-8	-9	4%
CC1CCN(C(=O)c2[nH]cnc2C(=O)NCC(=O)OCc2ccccc2)CC1	1.4	-14	1.7	0.6	3.6	-7	-4	nt
CNc1nc(NCc2ccccc2)nc(N)c1[N+](=O)[O-]	6.9	15	4.6	-1.5	2.5	3	0	nt
O=C(O)COc1ccccc1/C=C1\SC(=S)N(NC(=O)c2ccccc2O)C1=O	3.4	1	-0.7	0.8	-2.4	-4	0	nt
CCc1cccc(NS(=O)(=O)c2ccc3c(c2)oc(=O)n3C)c1	9.1	9	1.1	0.6	nt	-7	nt	6%
O=C(CSc1nnc(-c2ccccc2)c2ccccc12)NCC1CCCO1 (stereo not drawn)	7.6	23	-3.3	0.5	nt	-8	0	5%
Cc1ccc(-n2cc[nH]c2=S)c(C)c1	0.3	22	-0.5	-0.6	-3.9	5	-5	nt
CCOc1ccc(C(=O)CN2CCN(S(=O)(=O)c3ccc(OC)cc3)CC2)cc1	-4.4	2	1.0	0.4	nt	-4	-3	-1%
NC(=O)NCc1cccs1	-2.4	9	-3.1	0.4	-3.3	-14	nt	nt
Cc1cc(=O)oc2cc(NC(=O)c3ccnn3C)ccc12	-3.6	0	5.9	-4.1	nt	-1	2	-6%
O=S(=O)(NCC1CCCO1)c1ccc(Br)s1 (stereo not drawn)	-1.5	1	-2.4	0.1	nt	-2	-3	6%
CCOCCc1nnc(NC(=O)CN2C(=O)c3ccccc3C2=O)s1	6.4	8	4.1	0.6	nt	-11	-2	-1%
CCN(C[C@H]1N[C@@](Cc2ccccc2)(C(=O)OC)[C@H]2C(=O)N(Cc3ccccc3)C(=O)[C@@H]12)C(=O)NC(C)C	nt	nt	nt	0.0	-2.0	nt	-5	3%
COc1ccccc1NC(=O)CN(Cc1ccco1)C(=O)c1ccc(=O)[nH]c1	0.0	-8	-0.3	-0.2	-1.5	3	-4	28%
CN(C)CCNc1nc(-c2ccccc2)nnc1C(F)(F)F	-0.1	0	0.3	0.0	nt	nt	4	?
Cc1cc(C(=O)Nc2sc3c(c2C#N)CCCC3)no1	-4.6	?	-4.5	-2.3	-20	11	2	?
Cc1cc(=O)oc(C)c1C(=O)Nc1ccc2nsnc2c1	3.3	-2	-1.7	0.1	nt	-11	-4	18%
NC(=O)c1cc(S(=O)(=O)NCc2ccc(Br)cc2)cs1	-2.1	2	0.0	-1.1	-0.4	-23	1	nt
O=[N+]([O-])c1cc(S(=O)(=O)N2CCCC2)ccc1N/N=C/c1cccs1	-3.6	-2	-0.7	-0.7	nt	3	3	3%
COc1ccc(C(c2nnnn2CC2CCCO2)N2CCN(c3ccccc3)CC2)cc1 (stereo not drawn)	0.8	-4	2.1	0.7	nt	-15	-12	19%
C=CCN1C=CC(=O)CC1	-3.7	0	2.2	-0.4	-0.9	-22	-1	nt
Cc1cc2ccccn2c1C(=O)Nc1ccccc1	6.3	-14	-0.9	-2.5	2.4	-5	-5	nt
CC(C)(C)NC(=O)C(c1ccco1)N(C(=O)Cn1nnc(-c2ccc(F)cc2)n1)c1cccc(F)c1 (stereo not drawn)	-2.3	-15	-0.1	1.7	-65	27	-15	30%
O=C(NN1C(=O)C2C3c4ccccc4C(c4ccccc43)[C@@H]2C1=O)c1ccccc1 (stereo partly drawn)	0.1	4	-1.3	1.3	9.9	-11	-2	-2%
COc1ccc(CC(=O)NC2CC2)cc1OC	-0.7	-2	12	-0.1	0.4	-10	nt	-6%
Cc1ccc2c(CN3CCN(S(=O)(=O)c4ccc5c(c4)OCCO5)CC3)cc(=O)oc2c1C	1.4	-2	4.8	0.8	nt	39	6	-3%
CN(C(=O)c1ccno1)c1nnc(-c2cnccn2)s1	-4.2	-5	2.9	-0.6	nt	-9	-3	?
CSCCNC(=O)c1ccc2nc(C3CCCCC3)oc2c1	5.4	7	-3.9	0.2	-1.4	-9	1	nt
Cn1cc(Cl)c(C(=O)Nc2nc3ccc([N+](=O)[O-])cc3s2)n1	-0.1	-19	1.5	-5.1	-1.5	-19	-3	nt
Cc1ccc(S(=O)(=O)N2[C@@H](c3ccc(Cl)c(Cl)c3)C(C(=O)O)=C[C@H]2C(C)(C)C)cc1	nt	nt	0.8	-0.1	nt	nt	7	-7%
Cn1ncc(Cl)c1C(=O)Nc1ccc(CN2CCCCC2)cc1	1.3	-1	-6.8	0.7	1.6	20	-2	nt
Cc1cc(C)n2c(=O)c3ccc(Cl)cc3nc2c1C#N	4.4	21	-2.1	0.6	-4.0	-2	-9	?
O=C1CNC(=S)N1Cc1ccccc1Cl	-2.8	0	-2.4	-0.6	1.1	-25	-13	-5%
COc1ccc(NC(=O)c2ccc3nc(-c4ccccc4)c(-c4ccccc4)nc3c2)c(OC)c1	-3.0	-13	-7.2	-0.7	3.2	13	1	nt
CC(C)(C)C(=O)NC(=S)Nc1ccccc1N1CCCC1	-2.2	12	-2.3	0.2	9.6	8	-1	nt
O=C(c1cccs1)N1CC=C(c2ccccc2)CC1	nt	nt	-12	-0.5	3.2	nt	2	1%
O=C(CCCc1ccccc1)NCc1cccnc1	1.2	5	20	nt	nt	-6	0	?
CCSc1nnc(NC(=O)CSc2nnc(CNC(=O)c3cc(OC)c(OC)c(OC)c3)o2)s1	3.5	-2	0.9	1.0	nt	-4	-2	nt
O=C1CSC(c2cccc([N+](=O)[O-])c2)N1c1ccccc1F (stereo not drawn)	5.6	8	-484	1.1	-0.3	13	-3	nt
O=C(OC1CCCCC1)c1ccc(NC(=O)c2ccco2)cc1	-0.6	24	-3.6	-1.2	nt	-22	7	-2%
CCCc1cc(=O)oc2c3c(c4c(c12)OC(C)(C)C=C4)OC(C)C(C)C3O (stereo not drawn)	-1.2	14	-1.2	-0.4	5.9	55*	17	nt
COc1ccccc1N1C(=O)c2cccc3c(Cl)ccc(c23)C1=O	-0.5	nt	-1.9	7.8*	0.9	-18	6	-6%
O=c1[nH]c(N2CCCCC2)nc2c1CCCC2	0.8	8	5.3	0.5	nt	7	2	-4%
Cc1onc(C(=O)Nc2ccccc2C(F)(F)F)c1[N+](=O)[O-]	5.0	4	nt	nt	-5.4	-16	nt	nt
(cont.)
SMILES	RanGTP-Imp inh	Calb FLC	LANA-H2A inh	Bfl-1 A1 inh	AF4-AF9 inh	T cruzi inh	Beta apoptosis	Vif TR-FRET
Cc1ccc(CSc2nnc(SCC(=O)N/N=C/C=C/c3ccco3)s2)cc1	-1.0	-3	-1.3	-0.9	nt	-8	2	nt
NNC(=O)c1nnn(-c2nonc2N)c1CN1CCCC1	-5.6	-1	2.5	-0.2	1.0	2	0	-7%
CCOC(=O)c1sc2nccc(OC)c2c1N=CNOC	-3.9	-9	-2.1	-0.1	-2.0	2	1	-1%
Cc1nc2nc(COc3ccccc3)[nH]n2c(=O)c1Cl	-1.5	0	0.6	-5.8	nt	-8	2	-5%
CC(=O)c1ccc(OCc2cc(C(=O)N3CC4C[C@@H]5CC3C[C@H](C4)C5)no2)cc1	?	-22	4.1	-1.3	2.8	30	30	0%
Nc1ccnn1-c1ccccc1	-2.4	-3	-1.2	-0.7	-19	-7	0	12%
CC(=O)c1ccc(OCC(=O)c2cc(C)n(-c3ccc4c(c3)OCO4)c2C)cc1	1.9	6	-5.7	0.8	0.1	-53	62	-2%
Cc1nc2ccccc2c2c(N)c3ccccc3n12	-0.2	18	6.7	0.6	2.2	14	-26	10%
Cc1ccc(S(=O)(=O)N(CC(=O)NCC2CCCO2)Cc2cccc(C)c2)cc1 (stereo not drawn)	1.2	2	-4.2	-0.1	-1.7	10	-1	-1%
COc1cc(/C=C2\SC(N)=NC2=O)ccc1OCC(=O)Nc1ccc(C)cc1	-4.0	-12	-8.8	0.5	nt	-2	5	nt
CC1(C)Cc2cccc(OCC(=O)Nc3ccccc3C(F)(F)F)c2O1	?	6	-2.2	0.0	1.3	-5	3	nt
O=C(Cn1ccc2ccccc2c1=O)NCC(=O)N1CCN(c2ccc(F)cc2)CC1	3.8	-1	3.0	1.0	9.6	-1	-6	nt
O=C(Oc1nsnc1N1CCOCC1)c1ccccc1	-3.8	8	1.8	0.5	-1.4	-14	-8	-3%
CNC(=O)c1ccsc1NC(=O)C1CCN(S(=O)(=O)c2ccc(Cl)s2)CC1	2.4	-17	4.1	-1.9	0.9	10	0	1%
